Screening data: PubChem BioAssay, National Center for Advancing Translational Sciences (NCATS)
StopGo FLuc: lowers the firefly signal of an FMDV 2A StopGo reporter | AID 1745856 | HEK cells with a luciferase reporter of 2A StopGo recoding | Potency, µM (doses to about 57.5 µM), inactives show at the highest dose signal change, negative = less light | 120,000 tested, 0.23% active; active = well fitted falling curve with a large enough effect; inconclusive = small, poorly fitted or top-dose-only effect; inactive = no such curve, though single readings can be large or run the other way; also: nearly all actives have a fitted effect of over 60% in size; overnight with compound
2A Renilla: FMDV 2A StopGo reporter, Renilla signal | HEK cells with a luciferase reporter of 2A StopGo recoding | Potency, µM (titrated, usually from 57.5 µM), for inactives: top-dose signal change, negative = less light | 120,000 tested, 0.32% active | AID 1745857; active means well fitted falling curve with a large enough effect; inconclusive means small, poorly fitted or top-dose-only effect; inactive means no such curve, though single readings can be large or run the other way; also: nearly all actives have a fitted effect of over 55% in size; overnight with compound
Starred values were filed as active, the others as inactive; ? = inconclusive; & = joins results of further samples; [ ] = another dose, or the depositor's remark. % is scaled to controls: 0 for no effect and ±100 for the full control effect; potency is read from the fitted curve at half-maximal effect. This is a subset; count on the stated rates, not on these rows.

Values run as follows: StopGo FLuc, 2A Renilla
Cc1ccc(NC(=O)Cn2c(=O)n(CCc3ccccc3)c(=O)c3c4c(sc32)CCCC4)c(C)c1
→ -11%, -6%
Cc1cc(C)cc(-n2ccnc2SCC(=O)Nc2nnc(C)s2)c1
→ 12%&32%, 21%&44%
O=C(c1sccc1-c1ccccc1)N1CCN(S(=O)(=O)c2cccc(F)c2)CC1
→ -7%, 10%
Cc1ccc(C2Nc3ccccc3-n3c(-c4ccccc4)c4c(=O)n(C)c(=O)n(C)c4c32)o1 (stereo not given)
→ -10%, -22%
Cc1[nH]c2ccccc2c1C1(O)C(=O)N(Cc2ccccc2)c2ccc(Cl)cc21 (stereo not given)
→ -27%, 2%
COc1ccc2oc(=O)c(C(=O)NCCc3c(C)[nH]c4c(C)cccc34)cc2c1
→ -2%&4%, 19%&-4%
Cc1c(C(N)=O)sc(NC(=O)C2CCCO2)c1C(=O)OC(C)C (stereo not given)
→ -1%, -6%
CCC(C)NC(=O)Cn1c(=O)n(-c2ccc(Cl)c(Cl)c2)c(=O)c2c(C)c(C(=O)N(CC)CC)sc21 (stereo not given)
→ -23%, -17%
CCCS(=O)(=O)N1CCCN(c2ccc(=O)n(-c3ccccc3)n2)CC1
→ -1%, -7%
N#Cc1c(SCC(=O)N2CCOCC2)nc(N2CCOCC2)c2c1CCCC2
→ -17%, -14%
O=C(Cn1nc(-c2ccc(Br)cc2)ccc1=O)NCc1ccc2c(c1)OCO2
→ -7%, -8%
COc1cc(C2Nc3c(C)cc(C)cc3-c3cc(C)nn32)ccc1O (stereo not given)
→ 24%, 24%
O=c1oc2c3c(ccc2c2ccccc12)OCN(Cc1cccc(Cl)c1)C3
→ -1%, 4%
CCCNc1cc(C)ccc1C
→ -1%, 4%
CSc1ccc(C2c3c(oc4cc(C)cc(C)c4c3=O)C(=O)N2CCO)cc1 (stereo not given)
→ 28%, 11%

Exported field by field: entries from further up
> COc1ccc2oc(=O)c(C(=O)NCCc3c(C)[nH]c4c(C)cccc34)cc2c1
  StopGo FLuc: -2%&4%	2A Renilla: 19%&-4%

> Cc1c(C(N)=O)sc(NC(=O)C2CCCO2)c1C(=O)OC(C)C (stereo not given)
  StopGo FLuc: -1%	2A Renilla: -6%

The list continues:
Values run as follows: StopGo FLuc, 2A Renilla
CCOc1ccc(N2CC(NC(=O)c3ccc(S(=O)(=O)N4CCOCC4)cc3)CC2=O)cc1 (stereo not given)
→ 14%&-14%, 17%&-9%
CCN1CCN(c2nc3ccccc3nc2NS(=O)(=O)c2ccc(C)cc2)CC1
→ -2%, 4%
Cc1ccc2[nH]c3c(=O)n(CC(=O)Nc4ccc(Br)cc4C)ncc3c2c1
→ -15%, -5%
CCNC(=O)NC(=O)C(C)N(C)Cc1ccc(C(F)(F)F)cc1 (stereo not given)
→ -18%, -20%
COc1cccc(CCNC(=O)Cn2c(-c3cccs3)cc3ccccc32)c1
→ 15%, 14%
CC(=O)c1cc(C)c(C)cc1O
→ 13%, 9%
CCOc1ccc2c(c1)C(C)=CC(C)(C)N2S(=O)(=O)c1ccc(Br)cc1
→ -22%, -11%
COC(=O)C1=C(C(=O)c2ccccc2)C(c2ccccc2)n2nnnc2N1 (stereo not given)
→ 35%[activator], 36%[activator]
Cc1cccc(NC(=O)c2nc(-c3ccccc3)oc2C)n1
→ 9%, -2%
CCNC(=O)CC1C(=O)N(c2ccccc2)C(=O)N1Cc1ccc(F)cc1 (stereo not given)
→ -17%, -15%
Cc1ccc2[nH]cc(C(C(=O)O)N3CCN(c4ccc(Cl)c(Cl)c4)CC3)c2c1 (stereo not given)
→ 0%, 23%
O=C(C(Sc1nnc(-c2cccnc2)n1-c1ccccc1)c1ccccc1)N1CCCC1 (stereo not given)
→ 15%, 16%
Cc1ccc(S(=O)(=O)n2nc(C)c(S(=O)(=O)N3CCCCCC3)c2C)cc1C
→ -6%, -3%
COCCn1c(-n2nc(C)cc2C)nc2c1c(=O)n(Cc1cccc(Cl)c1)c(=O)n2C
→ -6%, 8%
Cc1ccc(C)c(NC(=O)CSc2ncc3c(n2)-c2ccc(Cl)cc2N(C)S3(=O)=O)c1
→ -15%, 3%
O=C(NCc1cccc(F)c1)c1ccc2nc(CCc3ccccc3)oc2c1
→ 98%[activator], 15%
CNS(=O)(=O)c1cn(CC(=O)Nc2ccc(OC)c(Cl)c2)cc1S(=O)(=O)NC
→ -17%, 57%[activator]
COc1cc2nc(SCc3ccc(C)cc3)n3nc(CCn4nc(C)cc4C)nc3c2cc1OC
→ 0%, -16%
CCOCc1nnc(NC(=O)c2c(-c3ccccc3)noc2C)s1
→ -7%, -7%
COc1ccc(Cl)cc1NC(=O)CCc1c(C)nc2c(c1C)c(=O)n(C)c(=O)n2C
→ 0%, -17%
Cc1ccc(-c2cnc(CCC(=O)Nc3ccc(C)c(F)c3)o2)cc1C
→ -14%, -21%
Cn1c(CCn2ccccc2=O)nc2cc(NS(=O)(=O)c3ccc(Cl)cc3)ccc21
→ -14%, 6%
Cc1ccc(/C=C(\C#N)C(=O)NC2CCCCC2)o1
→ 128%[activator], 38%[activator]
CC(NC(=O)c1cc(=O)c2ccccc2o1)c1ccccc1 (stereo not given)
→ 14%, -6%
CCC1=Nc2cc(C(=O)NCCc3ccccc3)ccc2Sc2ccc(Cl)cc21
→ 138%[activator], 44%[activator]
CSc1nc2n(n1)C(c1ccc(O)cc1)C1=C(CC(C)(C)CC1=O)N2 (stereo not given)
→ 5%, 5%
COc1ccc(OC)c(-c2nnc3n(Cc4ccc(C)cc4)c(=O)c4ccccc4n23)c1
→ -24%, 7%
CCOc1ccc(CCNC(=O)c2c(C)oc3ncn(C)c(=O)c23)cc1
→ -3%, -3%
Cc1cc(F)ccc1S(=O)(=O)Nc1ccc2oc3c(c2c1)CC(C)CC3 (stereo not given)
→ -7%, 137%[activator]
CCn1cc(C(=O)NCCOc2ccc(OC)cc2)c2ccccc21
→ 12%, 15%

The list goes on.
mol	StopGo FLuc	2A Renilla
CC(=O)N(CCC1(CCC(C)C)CCOC(C)(C)C1)Cc1ccccc1 (stereo not given)	-24%	-13%
COc1ccc(C(CNC(=O)CN2CCN(C)CC2)c2c[nH]c3ccccc23)cc1 (stereo not given)	-11%	-15%
CCC(C)c1ccccc1NC(=O)c1ccc(SC)cc1OC (stereo not given)	25%	13%
C=CCNC(=O)CSCc1coc(-c2ccc(OC)cc2)n1	76%[activator]	-28%
COc1cc(OC)cc(C(=O)Oc2ccc(Cl)c(C)c2)c1	-3%	-1%
O=C(Nc1ccc(F)cc1)c1ccc2c(c1)CC(c1ccc(F)cc1)OC2=O (stereo not given)	3%	-9%
CC1=C(C(=O)OCc2ccc3c(c2)OCO3)C(c2c(F)cccc2Cl)CC(=O)N1 (stereo not given)	?	-31%
CCN(CC)C(CNC(=O)c1nn(C)c(=O)c2ccccc12)c1ccccc1 (stereo not given)	-7%	-16%
COc1ccc(OC)c(NC(=O)[C@H](CSCc2ccccc2)N2Cc3ccccc3C2=O)c1	-12%	119%[activator]
CCc1ccc2oc(-c3ccc(N)cc3O)nc2c1	104%[activator]	-4%
CC(C)NC(=O)c1ccccc1-c1ncc(-c2ccccc2)o1	14%	6%
O=C(CN1CCN(S(=O)(=O)Cc2ccccc2)CC1)Nc1cccc(F)c1	12%	-4%
COc1cc(OC)c(NC(=O)CSCc2cc(=O)n3cc(C)ccc3n2)cc1Cl	-8%	-7%
Cc1ccc(NC(=O)c2nn(C)c(=O)c3ccccc23)c(O)c1	110%[activator]	36%[activator]
Cc1nc2sc(C(=O)N(C)Cc3ccccc3)c(NC(=O)c3ccccc3)c2c(C)c1Cl	-11%	-4%
CSc1ccccc1C(=O)Nc1ccc(F)c(F)c1	21%	3%
COc1ccc(CC(=O)NCCc2csc(-c3ccc(Cl)cc3)n2)cc1	?	?
O=C(CSc1nc2c([nH]c3ccccc32)c(=O)n1-c1ccc(Cl)cc1)N1CCCCCC1	?	-6%
O=C(Cn1cnc2sccc2c1=O)N1N=C(c2ccco2)CC1c1ccco1 (stereo not given)	87%[activator]	-4%
CCCc1c(C)c2ccc(OCc3ccccc3)cc2oc1=O	85%[activator]	-11%
Cc1cc(-c2cccs2)n[nH]1	0%	6%
CCC1CCCCN1C(=O)CSc1n[nH]c(-c2ccccc2Cl)n1 (stereo not given)	67%[activator]	15%
CC(C)C[C@H](NC(=O)NCC(c1ccccc1)c1ccccc1)C(=O)O	2%	7%
N#Cc1ccc(Cn2cnc3ccccc3c2=O)c(F)c1	5%	-4%
CC(=O)c1cccc(-n2c(=O)c3c4c(sc3n(CC(=O)Nc3ccccc3F)c2=O)CN(C(C)=O)CC4)c1	-30%	-10%
Cc1ccc(C(CNC(=O)c2cc(-c3ccc4c(c3)CCCC4)on2)N2CCN(C)CC2)o1 (stereo not given)	-21%	-13%
CCOC(=O)COc1ccc([N+](=O)[O-])cc1-c1ccnc2cc(-c3ccc(Cl)cc3)nn12	3%	-5%
CC(=O)NC(Nc1ccccc1F)C(=O)c1ccccc1 (stereo not given)	25%	-11%
O=c1[nH]c(-n2cccc2)c(-c2c(-c3ccc(Cl)cc3)[nH]c3[nH]c(=O)[nH]c(=O)c23)c(=O)[nH]1	17%	2%
CCC1CN(C(=O)C2CCN(S(=O)(=O)c3c(C)noc3/C=C/c3ccccc3F)CC2)c2cc(Cl)ccc2O1 (stereo not given)	-17%	-1%
CN(Cc1ccccc1)C(=O)c1cccc(Nc2cc(-c3ccccc3)ncn2)c1	?	?
CC(C)Oc1ccc(/C=C(/C#N)c2nc3ccccc3[nH]2)cc1Br	-20%	?
C(#Cc1ccc(C#CC[N+]2(Cc3ccccc3)CCCCC2)cc1)C[N+]1(Cc2ccccc2)CCCCC1	11%	7%
CS(=O)(=O)NCC(=O)O	0%	56%[activator]
CC1(C)CC(CCN2CCC(Cc3ccccc3)CC2)(c2cccc(C(F)(F)F)c2)CCO1 (stereo not given)	-7%	-17%
c1coc(-c2nc3n(n2)C2(CCCCC2)[C@@H]2CCCC[C@@H]2N3)c1	-16%	65%[activator]
Cc1cc2c(cc1S(=O)(=O)NCc1ccccc1)OCC(=O)N2	13%	157%[activator]
CC(=O)Nc1ccc(C(=O)NC2CCC3CCCCC3C2)s1 (stereo not given)	121%[activator]	98%[activator]
COc1ccc2cc(/C=C/C(=O)c3cccs3)ccc2c1	183%[activator]	31%[activator]
CCCCc1cc(=O)oc2c(C)c(OC(C)C(=O)NCc3ccccn3)ccc12 (stereo not given)	0%	2%

17 structures already listed, sorted by molecular weight, descending.
mol	StopGo FLuc	2A Renilla
CCC1CN(C(=O)C2CCN(S(=O)(=O)c3c(C)noc3/C=C/c3ccccc3F)CC2)c2cc(Cl)ccc2O1 (stereo not given)	-17%	-1%
C(#Cc1ccc(C#CC[N+]2(Cc3ccccc3)CCCCC2)cc1)C[N+]1(Cc2ccccc2)CCCCC1	11%	7%
CC1(C)CC(CCN2CCC(Cc3ccccc3)CC2)(c2cccc(C(F)(F)F)c2)CCO1 (stereo not given)	-7%	-17%
CCOC(=O)COc1ccc([N+](=O)[O-])cc1-c1ccnc2cc(-c3ccc(Cl)cc3)nn12	3%	-5%
Cc1ccc(C(CNC(=O)c2cc(-c3ccc4c(c3)CCCC4)on2)N2CCN(C)CC2)o1 (stereo not given)	-21%	-13%
O=c1[nH]c(-n2cccc2)c(-c2c(-c3ccc(Cl)cc3)[nH]c3[nH]c(=O)[nH]c(=O)c23)c(=O)[nH]1	17%	2%
CCCCc1cc(=O)oc2c(C)c(OC(C)C(=O)NCc3ccccn3)ccc12 (stereo not given)	0%	2%
CC(C)Oc1ccc(/C=C(/C#N)c2nc3ccccc3[nH]2)cc1Br	-20%	?
CCC1CCCCN1C(=O)CSc1n[nH]c(-c2ccccc2Cl)n1 (stereo not given)	67%[activator]	15%
CC(C)C[C@H](NC(=O)NCC(c1ccccc1)c1ccccc1)C(=O)O	2%	7%
CC(=O)Nc1ccc(C(=O)NC2CCC3CCCCC3C2)s1 (stereo not given)	121%[activator]	98%[activator]
c1coc(-c2nc3n(n2)C2(CCCCC2)[C@@H]2CCCC[C@@H]2N3)c1	-16%	65%[activator]
COc1ccc2cc(/C=C/C(=O)c3cccs3)ccc2c1	183%[activator]	31%[activator]
CC(=O)NC(Nc1ccccc1F)C(=O)c1ccccc1 (stereo not given)	25%	-11%
N#Cc1ccc(Cn2cnc3ccccc3c2=O)c(F)c1	5%	-4%
Cc1cc(-c2cccs2)n[nH]1	0%	6%
CS(=O)(=O)NCC(=O)O	0%	56%[activator]

(cont.)
mol	StopGo FLuc	2A Renilla
CSc1cccc(Nc2nc(N)c(C(=O)c3ccccc3Cl)s2)c1	0%	0%
N#CC1=C(N)OC2=C(C(=O)CC(c3ccccc3)C2)C1c1ccccc1C(F)(F)F (stereo not given)	?	-13%
Cc1c(-c2ccccc2)c(=O)oc2cc(OC(=O)c3ccco3)ccc12	48%[activator]	23%
CC(=O)c1cccc(NC(=O)COc2c(C)[nH]ccc2=O)c1	0%	-5%
CCOc1ccc(CCNCc2c(C(=O)O)n(Cc3ccc(C)cc3)c3cc(OC)ccc23)cc1	0%	-3%
CCCCNc1sc(S(=O)(=O)CC)nc1S(=O)(=O)c1ccc(C)cc1	-12%	144%[activator]
